RecA intein inh: blocks M. tuberculosis RecA intein splicing | inhibition, %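 (about 9 µM by stock and volumes)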 | 290,000 tested, 0.75% active | P9WHJ3 | cell-free RecA intein splicing, fluorescence | AID 2221; in the data active = inhibition above about 30%;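 also: 0% = vehicle wells and 100% = reference inhibitor control wells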
Target sequence (P9WHJ3 whole entry, looked up): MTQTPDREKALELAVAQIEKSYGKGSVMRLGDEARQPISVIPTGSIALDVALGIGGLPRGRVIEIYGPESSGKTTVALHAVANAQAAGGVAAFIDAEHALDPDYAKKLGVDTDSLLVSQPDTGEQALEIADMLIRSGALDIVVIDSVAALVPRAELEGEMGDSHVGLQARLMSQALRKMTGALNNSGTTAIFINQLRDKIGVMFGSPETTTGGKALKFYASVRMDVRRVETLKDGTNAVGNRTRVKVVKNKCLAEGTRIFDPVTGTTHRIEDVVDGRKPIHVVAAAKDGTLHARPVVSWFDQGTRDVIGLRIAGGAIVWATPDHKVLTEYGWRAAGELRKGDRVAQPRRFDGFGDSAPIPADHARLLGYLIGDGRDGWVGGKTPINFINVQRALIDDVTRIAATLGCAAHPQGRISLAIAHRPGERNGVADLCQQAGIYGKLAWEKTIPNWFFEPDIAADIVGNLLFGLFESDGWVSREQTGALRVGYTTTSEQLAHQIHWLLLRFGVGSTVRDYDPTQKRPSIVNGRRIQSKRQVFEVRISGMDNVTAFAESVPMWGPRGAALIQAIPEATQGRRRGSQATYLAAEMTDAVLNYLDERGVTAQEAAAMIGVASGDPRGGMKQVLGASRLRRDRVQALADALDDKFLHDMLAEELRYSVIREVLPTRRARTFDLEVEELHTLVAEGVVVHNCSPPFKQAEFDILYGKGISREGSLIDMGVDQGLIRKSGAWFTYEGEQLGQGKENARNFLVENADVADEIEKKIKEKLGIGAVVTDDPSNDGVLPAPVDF
Arbovirus anti: arbovirus infection inhibition. arbovirus infection cell-based antiviral screen. inhibition, % at 10 µM. 200,000 tested, 0.37% active;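 active = inhibition from about 30%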;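 also: bluetongue infection of BSR cells; cell survival read as ATP light after 72 h; 0% = infected wells without compound and 100% = uninfected wells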
YopH inh: YopH (Yersinia) phosphatase inhibition. fluorescence Ex485/Em525. inhibition, %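 (about 10 µM by stock and volumes)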. 140,000 tested, 0.16% active. AID 898;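 active = inhibition of 50% or more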;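 also: controls were vehicle for no effect and minimum signal wells for full effect; inactives centre near -20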
Mtb growth: M. tuberculosis H37Rv growth inhibitors, H37Rv strain (AID 1626) | M. tuberculosis H37Rv growth inhibition; higher % means a stronger effect | 220,000 tested, 0.95% active | inhibition, % at 10 µM; hits with a dose series show IC50 in µM;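 active = confirmed in a dose series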;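 also: bacteria incubated seven days before Alamar blue readout; 0% = bacteria only wells and 100% = bacteria with antibiotic wells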
Mtb bLac sens: beta-lactam sensitization of Mtb H37Rv | M. tuberculosis H37Rv growth with meropenem, percent inhibition; hits of this screen are not shown here | inhibition, % at 25 µM | 330,000 tested, 0.27% active;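 active = about 74% or more and at least 40 points above the plate without the antibiotic, then above 30% in a dose series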;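 also: growth measured after seven days incubation then overnight dye step; 0% = bacteria only wells and 100% = bacteria with antibiotic; twin plates without the antibiotic show which effects depend on it; some results filed as inactive read as strong as hits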
Active calls of the source: *; . = not tested or not shown. These rows are one share of the data. The share of hits here may be higher or lower than overall.

Under each structure – RecA intein inh | Arbovirus anti | YopH inh | Mtb growth | Mtb bLac sens
> Cc1nc2cc(N3CCCCC3)c(NC(=O)c3ccncc3)cc2c(=O)n1Cc1ccc(Cl)cc1
→ -5.4 | -17 | -13 | . | -2
> CC1CCCCC1NC(=O)CSCC(=O)O (stereo not given)
→ 0.8 | -5 | -23 | -1% | -1
> c1ccc2c(c1)COC(CNC1CCCCC1)OC2
→ -4.0 | 1 | . | -8% | -2
> CCOC(=O)c1c(CN(C)C)n(-c2ccccc2)c2cc(Br)c(O)cc12
→ 1.4 | 0 | . | 13% | 0
> COC(=O)CCC(=O)NNC(=O)C1CC1(c1ccccc1)c1ccccc1 (stereo not given)
→ 2.0 | . | . | . | 1
> COc1cc(C(=O)Nc2ccncc2)cc(OC)c1OC
→ -1.2 | 12 | -33 | 0% | 1
> COc1ccc(-c2nnn(Cc3nn[nH]n3)n2)cc1OC
→ -1.1 | 6 | -33 | -14% | 6
> CCc1cccc(OCCn2nc(C(=O)O)c3ccccc3c2=O)c1
→ 0.3 | 15 | . | 8% | -13
> Nc1nonc1-c1noc(N2CCCCC2)n1
→ 1.2 | 6 | 4 | -9% | 1
> Cc1ccc(S(=O)(=O)N2CCCC(C(=O)Nc3ccc(C(=O)O)cc3)C2)cc1Cl (stereo not given)
→ 0.6 | 7 | . | 0% | -1
> CCN(CC)C(=O)CSc1nc2sc3c(c2c(=O)n1CCOC)CCC3
→ -1.5 | . | . | . | 3
> N/C(Cc1ccc(Cl)c(Cl)c1)=N\OC(=O)c1ccc(Br)o1
→ 0.8 | . | . | 6% | -4
> COCCNC(=O)CN(Cc1ccccc1)S(=O)(=O)c1ccc2nc(C)sc2c1
→ -0.2 | . | . | . | 4
> COc1cccc(NC(=O)C2CCN(C(=O)[C@@H]3Cc4ccccc4CN3)CC2)c1
→ 1.0 | . | . | . | 4
> COc1ccc(N2CC(O)=C(c3nc(-c4ccccc4)cs3)C2=N)cc1
→ -0.9 | . | . | -8% | -7
> Cc1ccc(-c2nc(CN3CCCC(C(=O)N4CCOCC4)C3)c(C)o2)cc1 (stereo not given)
→ 44* | . | . | . | -1
> Cc1ccc(C)n1-c1nn(S(=O)(=O)c2ccccc2)c2cccc(F)c12
→ 15 | . | . | 3% | 5
> COc1cc(C(=O)Nc2nc(-c3cccs3)cs2)cc(OC)c1OC
→ 8.1 | -8 | 5 | 56% | 3
> CCC(=O)N(CCCN(C)C)c1nc(-c2cc(OC)ccc2OC)cs1
→ 4.4 | -10 | -40 | 2% | 2
> Cc1ccc2c(c1)N(CC(=O)N1CCCc3ccccc31)C(=O)C(C)O2 (stereo not given)
→ 1.6 | 5 | 42 | 8% | -3
> O=C(COc1ccc(F)cc1)NC1CC1
→ -9.8 | -3 | -28 | -14% | 1
> Cc1cccc(-n2c(-c3ccncc3)n[nH]c2=S)c1
→ 0.1 | 8 | -78 | 0% | 3
> O=C(Nc1nnc(Cc2ccc(F)cc2)s1)Nc1ccccc1F
→ -2.6 | . | . | . | 1
> CSc1ccccc1OCc1cc(C(=O)NC2CCc3ccccc32)no1 (stereo not given)
→ 3.7 | . | . | . | -4
> [O-][n+]1ccc(OCc2ccccc2)cc1
→ -0.2 | . | . | . | -9
> Cc1c(CN2CCCC(C(=O)c3cccc(OC(C)C)c3)C2)c(=O)n(-c2ccccc2)n1C (stereo not given)
→ 1.1 | -30 | . | 0% | 4
> Cc1sc(NC(=O)CCC(=O)O)c(C(N)=O)c1-c1ccccc1
→ 2.4 | -5 | -26 | 0% | 2
> COc1cc2ncnc(NCc3cccc(Cl)c3)c2cc1OC
→ 3.2 | -19 | . | 6% | -4
> CC1CN(C2CCN(S(=O)(=O)c3ccccc3)CC2)CC(C)O1 (stereo not given)
→ -0.8 | -2 | -38 | -5% | 1
> COc1ccccc1CNC(=O)CSc1ccc(-c2ccccn2)nn1
→ 0.9 | -31 | . | 4% | -3
> COc1ccc(C(CC(=O)O)NC(=O)Cc2ccccc2)cc1OC (stereo not given)
→ -2.9 | 0 | -27 | -12% | -5
> COc1ccc(C2(O)CCN(Cc3nnnn3Cc3ccc(F)cc3)CC2)cc1
→ -1.3 | 10 | -48 | -3% | -7
> Cc1ccc2c3c(cccc13)-c1ccccc1C2=O
→ -454 | -4 | -45 | 10% | 22
> Cc1ccc(Oc2ncccc2CO)cc1
→ 1.8 | 8 | . | -1% | -5
> CC1(O)CC(=O)N(c2ccccc2)O1 (stereo not given)
→ -4.4 | 6 | -39 | -7% | 5
> COCCNC(=O)Cn1c(=O)n(CCC(=O)NCCc2ccccc2)c(=O)c2ccccc21
→ 0.0 | -1 | -27 | -6% | -3
> CC(C)c1cc(C(=O)NCc2cccnc2)no1
→ -0.5 | -3 | -8 | -11% | -2
> Cc1ccc(-c2nn(-c3ccccc3)cc2/C=N/NC(=O)c2ccc(Br)o2)cc1
→ 1.9 | -13 | -26 | 1% | 0
> CC(C)N1CCC(N2CCN(Cc3ccc(C#CC(C)(C)O)s3)CC2CCO)CC1 (stereo not given)
→ . | 2 | . | 1% | -2
> CCCCC(c1nnnn1CCOC)N1CCN(C(=O)c2ccco2)CC1 (stereo not given)
→ -1.3 | 7 | -41 | -1% | .
> COc1ccccc1N(C)S(=O)(=O)c1ccc(C(=O)OCC(=O)Nc2cc(C)on2)cc1
→ 2.0 | 0 | . | 1% | -4
> CC(=O)c1ccc(-c2ccc(C(=O)NCC(c3ccc(F)cc3)N3CCOCC3)o2)cc1 (stereo not given)
→ -0.6 | . | . | . | 0
> Cc1ccc(C(=O)Nc2nc3ccccc3n3nnnc23)cc1
→ -3.8 | -1 | -7 | -7% | -7
> CCc1cc(=O)oc2c(C)c(OCC(=O)NC3CC(C)(C)NC(C)(C)C3)ccc12
→ -0.5 | . | . | . | 3
> CCOc1ccc(N2CC(C(=O)NCCc3c[nH]c4ccc(OC)cc34)CC2=O)cc1 (stereo not given)
→ -2.5 | . | . | . | 1
> COC(=O)c1ccc(C)c(NC(=O)Cn2cnc3ccccc3c2=O)c1
→ -3.6 | 21 | -39 | 3% | -2
> CC1=CC2=NCC(O)CN2C=C1 (stereo not given)
→ -1.2 | -3 | -25 | -3% | -9
> CCOC(=O)c1ccc(P(=O)(c2ccccc2)c2ccccc2)cc1
→ 1.7 | . | . | . | 2
> CS(=O)(=O)Nc1ccc(N2CCCCC2)c(Cl)c1
→ 0.6 | 6 | -29 | 3% | -1
> C/C(=N\NC(=O)C1CCCN(S(=O)(=O)c2ccccc2)C1)c1ccncc1 (stereo not given)
→ 8.2 | 0 | -22 | -7% | -17
> COc1ccc(C(=O)Nc2ccc(S(=O)(=O)N3CCc4ccccc43)cc2)cc1
→ -2.8 | 16 | -9 | -2% | 1
> CCOC(=O)N1CCN(S(=O)(=O)c2ccc(C(=O)Nc3sc4c(c3C(N)=O)CC(C)(C)NC4(C)C)cc2)CC1
→ 2.1 | . | . | . | -1
> O=C(COC(=O)c1n[nH]c2ccccc12)NCc1ccccc1
→ -4.9 | 12 | -12 | -3% | 10
> COc1ccc(NC(=O)CSc2ncnc3c2cnn3Cc2ccccc2)cc1
→ -0.5 | -13 | 5 | 1% | 9
> C=CCNC(=O)/C(C#N)=C/c1ccc(C(=O)O)cc1
→ 0.6 | 4 | . | -5% | -6
> COc1cccc(CN2CCN(CC(=O)Nc3ccccc3Cl)CC2)c1
→ 0.9 | -17 | -43 | 2% | -11
> CCCCn1c2ccc(C)cc2c2nnc(SCCN3CCCCC3)nc21
→ 0.0 | . | . | . | 96
> Cn1c(=O)[nH]c(=O)c2c1nc(NCCCn1ccnc1)n2Cc1ccccc1
→ 1.7 | 2 | 13 | -3% | 14
> CCOC(=O)Cn1cc(C(=O)c2ccccc2)c2ccccc21
→ -1.2 | . | . | . | 17
> COCCCNC(=S)N/N=C/c1ccc(O)cc1
→ -2.3 | . | . | -9% | 27

Compound profiles (already shown):
`COCCCNC(=S)N/N=C/c1ccc(O)cc1` in the list: RecA intein inh: -2.3; Arbovirus anti: .; YopH inh: .; Mtb growth: -9%; Mtb bLac sens: 27
`CCOC(=O)Cn1cc(C(=O)c2ccccc2)c2ccccc21` in the list: RecA intein inh: -1.2; Arbovirus anti: .; YopH inh: .; Mtb growth: .; Mtb bLac sens: 17

Later entries
Under each structure – RecA intein inh | Arbovirus anti | YopH inh | Mtb growth | Mtb bLac sens
> COc1ccccc1C(=O)NC(=O)COC(=O)Cn1cnc2c1c(=O)n(C)c(=O)n2C
→ -0.7 | . | . | . | 1
> C#CCNC(=O)C1=C[C@@H](c2csc3ccccc23)C[C@@H](OCc2ccc(CO)cc2)O1
→ 11 | -11 | . | 0% | 38
> COc1ccc(CCNC(=O)CNCCc2ccc(F)cc2)cc1
→ -0.4 | . | . | . | 5
> Cc1nnc(SCc2nc3ccccc3c(=O)n2-c2ccccc2Cl)n1N
→ -2.8 | 0 | -27 | 2% | -4
> COCCn1c(=NC(=O)CSCC(=O)N2CCOCC2)sc2cc(C)ccc21
→ 0.7 | . | . | . | -12
> CCc1ccccc1N1CN(Cc2cccnc2)CNC1=S
→ -0.3 | . | . | -9% | 1
> CCN(CC)CCNC(=O)CS(=O)Cc1nc(-c2ccccc2Cl)oc1C (stereo not given)
→ 0.9 | 2 | 1 | -11% | -5
> COc1ccc(S(=O)(=O)N2CCCC2CNC(=O)C(=O)NCc2ccco2)cc1 (stereo not given)
→ -1.1 | . | . | . | -3
> CCN(CC)S(=O)(=O)c1cccc2nsnc12
→ -0.9 | 13 | -6 | -3% | -14
> O=C(NCc1ccccc1F)c1ccncc1
→ -2.3 | . | . | . | 6
> CCOC(=O)c1c(C)[nH]c(C(=O)COC(=O)CNC(=O)c2ccccc2Cl)c1C
→ 5.6 | -6 | -24 | 3% | 4
> Cc1ccc(C)c(NC(=O)c2sc(Cl)nc2C)c1
→ -1.0 | 4 | -33 | 0% | 0
> Cc1cc(C)c(NC(=O)CNC(=O)COC(=O)C2CCN(c3ccc(C(F)(F)F)cn3)CC2)c(C)c1
→ 1.4 | . | . | . | -1
> CCc1cccc(CC)c1NC(=O)COC(=O)c1ccc2c(c1)S(=O)(=O)c1ccccc1C2=O
→ 6.3 | 2 | -22 | 4% | 2
> CC(=O)CC(C)(C)n1nnc(-c2ccccc2)n1
→ 0.7 | 11 | -20 | 2% | -3
> O=S(=O)(c1ccc(Cl)cc1Cl)N1CCCC1c1cccnc1 (stereo not given)
→ 0.9 | . | . | 5% | -7
> CCOc1ccccc1NC(=O)CCNS(=O)(=O)c1ccc(NC(C)=O)cc1
→ -5.1 | . | . | . | -9
> CCc1c(C)nc(N2CCN(c3ccccc3F)CC2)[nH]c1=O
→ -0.1 | . | . | . | 86
> CCC(=O)c1ccc(OCC(=O)Nc2ccc(N3CCOCC3)cc2N2CCOCC2)cc1
→ 1.4 | . | . | . | -18
> O=C1CCC(C(=O)NCc2ccc3c(c2)OCO3)N1 (stereo not given)
→ -3.3 | 4 | . | 3% | -7
> CCOC(=O)c1cc(-c2ccc(OC)cc2OC)nn1-c1ccc(C(=O)O)cc1
→ 3.8 | 2 | . | -8% | -5
> COc1ccc(C(=O)C(Sc2nnc(C)c(=O)[nH]2)c2ccc(OC)cc2)cc1 (stereo not given)
→ 1.3 | . | . | -9% | -2
> O=c1c2ccccc2oc2nc(C3CCCCC3)n(Cc3ccco3)c(=O)c12
→ 2.4 | 1 | -27 | 13% | 64
> Cc1ccc(C(=O)CSc2nnc(-c3ccccc3N)n2C)cc1C
→ 2.9 | -4 | -15 | 2% | -11
> O=C(CCNC(=O)C1CCN(S(=O)(=O)c2ccccc2)CC1)NCc1ccc(Cl)cc1Cl
→ -2.1 | . | . | . | -2
> Oc1ccccc1-c1cc(-c2ccc3c(c2)OCCO3)n[nH]1
→ 19 | -32 | -24 | . | 82
> Cc1cc(OC(C)C(=O)NCC2CCCO2)cc(C)c1Cl (stereo not given)
→ -6.1 | . | . | . | 16
> O=C(Nc1ccc(Cl)cn1)Nc1ccccc1F
→ 0.7 | -1 | -29 | -8% | -3
> COc1ccccc1CCNC(=O)c1cccc(S(=O)(=O)NCc2ccccc2)c1
→ 3.2 | . | . | . | -1
> COc1ccc(CNC(=O)c2ccc(NC(=O)CC3SC(N4CCCC4)=NC3=O)cc2)cc1 (stereo not given)
→ -1.8 | 14 | 5 | -5% | -17
> CN(CCOc1ccc(Cl)cc1)C(=O)CN1C(=O)NC2(CCCCC2)C1=O
→ 0.2 | . | . | . | -7
> C=C1CCC[C@]2(C)C[C@H]3OC(=O)C(CNC(C)(CO)CO)[C@H]3CC12 (stereo not given in full)
→ -2.3 | . | . | . | -5

Quoted from the listing:
Entry for `Oc1ccccc1-c1cc(-c2ccc3c(c2)OCCO3)n[nH]1` in YopH inh: -24
Entry for `O=c1c2ccccc2oc2nc(C3CCCCC3)n(Cc3ccco3)c(=O)c12` in RecA intein inh: 2.4

Part of the list above in another layout:
SMILES | RecA intein inh | Arbovirus anti | YopH inh | Mtb growth | Mtb bLac sens
CCOC(=O)c1c(C)[nH]c(C(=O)COC(=O)CNC(=O)c2ccccc2Cl)c1C | 5.6 | -6 | -24 | 3% | 4
CCc1c(C)nc(N2CCN(c3ccccc3F)CC2)[nH]c1=O | -0.1 | . | . | . | 86
COc1ccc(S(=O)(=O)N2CCCC2CNC(=O)C(=O)NCc2ccco2)cc1 (stereo not given) | -1.1 | . | . | . | -3
